Mtb H37Rv = Mycobacterium tuberculosis H37Rv growth inhibition, putative kinase inhibitor library, confirmatory dose response (AID 2842) | M. tuberculosis H37Rv growth inhibition; higher % means a stronger effect; some inactives read as strong as hits | 24,000 compounds, 5.2% hits | one-dose inhibition, % at 10 µg/mL; IC90 in µg/mL for titrated hits;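 active means confirmed in a dose series; about a fifth of its hits are not listed in these tables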;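 further: bacteria incubated one week before Alamar blue readout; 0% = bacteria only wells and 100% = bacteria with high antibiotic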
An asterisk follows results filed as active.

SMILES	Mtb H37Rv
Cc1nc2sc(C(c3ccc(F)cc3)N3CCC(C(N)=O)CC3)c(O)n2n1 (stereo unspecified)	-5%
CCC(CC)c1nnc(NC(=O)CCCCCN2C(=O)c3ccccc3C2=O)s1	17%
CCOC(=O)c1ccccc1NC(=O)CSc1nnc2[nH]c(=O)ccn12	-2%
Cc1cccc(Nc2ncnc(N)c2[N+](=O)[O-])c1	6%
CCOCC(=O)Nc1scc2c(C(=O)OCC)nn(-c3ccc(C(F)(F)F)cc3)c(=O)c12	5%
O=C(Nc1nnc(-c2ccc(F)cc2)s1)c1ccc(S(=O)(=O)N2CCOCC2)cc1	-3%
COc1cccc2c1OC(c1cccnc1)N1N=C(c3cccc(O)c3)CC21 (stereo unspecified)	-2%
O=C(Nc1c(C(=O)Nc2ccccc2F)oc2ccccc12)c1ccc(Cl)cc1Cl	18%
COc1ccccc1-c1nnc(NC(=O)C(c2ccccc2)c2ccccc2)o1	44%
CCOC(=O)COc1cccc2c(=O)n(CC(=O)Nc3ccccc3F)ccc12	2%
CCOC(=O)N1CCN(c2ncnc(N)c2[N+](=O)[O-])CC1	-1%
CC1CCc2c(sc(NC(=O)Cc3ccc(S(C)(=O)=O)cc3)c2C(N)=O)C1 (stereo unspecified)	6%
O=C(CCn1c(=O)oc2ccccc21)N(Cc1ccccc1)c1ccccn1	-4%
CCOC(=O)COc1cccc2c(=O)n(CC(=O)Nc3ccc(Cl)c(Cl)c3)ccc12	-8%
O=C(Nc1ccc2c(c1)OCO2)c1c[nH]c(=O)n(-c2ccc(F)c(Cl)c2)c1=O	18%
N#C/C(=C\c1ccc(-c2ccc([N+](=O)[O-])cc2Cl)o1)C(=O)NCc1ccco1	3%
C=CCc1cccc2cc(C(=O)Nc3ccc(F)cc3)c(=O)oc12	-6%
COc1ccc(-c2csc(NC(=O)c3cc(Cl)ccc3[N+](=O)[O-])n2)cc1OC	28%
CCOC(=O)c1nn(-c2ccc(Cl)cc2)c(=O)c2c(NC(=O)c3cccc(OC)c3)scc12	0%
CCc1cccc(CC)c1NC(=O)CC1CCS(=O)(=O)C1 (stereo unspecified)	-12%
O=C(Nc1nc(-c2ccc(I)cc2)cs1)c1ccc2ncsc2c1	27%
COc1ccc(N/C=C(/C#N)c2nc(-c3cc4ccccc4oc3=O)cs2)c(OC)c1	2%
Cc1ccc(-c2cc(C(=O)N/N=C/c3ccc(O)cc3O)[nH]n2)cc1	-5%
CCOC(=O)c1nn(-c2ccccc2)c(=O)c2c(NC(=O)Cc3cccs3)scc12	-3%
Cc1cnc(=O)[nH]c1SCC(=O)Nc1cccc(C)c1C	-25%
O=C1/C(=C/c2ccc(Br)cc2)Oc2cc(O)ccc21	8%
COc1ccc(CC(=O)N2CCN=C2SCc2ccc(F)cc2)cc1	-1%
O=C(COc1ccc(Cl)cc1Cl)Nc1nnc(-c2ccc(Br)cc2)o1	6%
Fc1ccc2nc(N3CCN(c4nc5ccc(F)cc5s4)CC3)sc2c1	2%
Cc1ccc(C)c(-c2nnc(NC(=O)c3ccc(S(=O)(=O)N4CCCc5ccccc54)cc3)o2)c1	-16%
CCCc1cc(=O)[nH]c2nnc(SCC(=O)Nc3ccc(NC(C)=O)cc3)n12	-4%
COc1ccccc1C(=O)Nc1nnc(-c2ccc(Cl)cc2)o1	3.9µg/mL*
Nc1ncnc(Nc2ccc(OC(F)(F)F)cc2)c1[N+](=O)[O-]	15%
Nc1nc(SCc2c(F)cccc2Cl)[nH]c(=O)c1NC(=O)c1ccc(Cl)cc1	-7%
Cc1c(Cl)cccc1NC(=O)CSC1=C(C#N)C(c2ccco2)C2=C(CCCC2=O)N1 (stereo unspecified)	0%
COc1cc(C2/C(=C(\O)c3ccc(Br)cc3)C(=O)C(=O)N2CCCn2ccnc2)ccc1O (stereo unspecified)	-24%
COc1ccc2cc(CCNC(=O)c3ccc(OC)c(OC)c3)c(=O)[nH]c2c1	-14%
O=C(CSc1nc2sc3c(c2c(=O)[nH]1)CCC3)NCc1ccccn1	-24%
O=C(CSc1nnc(NC(=O)C2CCCCC2)s1)Nc1nccs1	0%
Cc1ccc(C)c2[nH]c(=O)c(CCNC(=O)c3ccc(F)cc3)cc12	2%
CCOC(=O)CCC(=O)Nc1c(C(=O)Nc2ccccc2F)oc2ccccc12	-4%
COc1cc(-c2nnc(NC(=O)c3cccc(Oc4ccccc4)c3)o2)cc(OC)c1OC	87%
O=C(Nc1nc(-c2nc3ccccc3s2)cs1)c1ccccc1Oc1ccccc1	-2%
Cc1occc1-c1nnc2sc(-c3ccc(-c4cccc([N+](=O)[O-])c4)o3)nn12	-3%
COCCOC(=O)C1=C(C)NC(=O)NC1c1ccc(OC)cc1 (stereo unspecified)	0%
COc1ccc(NC(=O)CSc2ccc3nnc(-c4cccc(F)c4)n3n2)cc1	0%
CC(=O)N1CCc2c(sc(NC(=O)CN3C(=O)CCC3=O)c2C(N)=O)C1	3%
N=C1SCC(=O)N1c1ncc(Cc2ccccc2F)s1	85%
COc1ccc(C(=O)NCCc2cc3ccc(C)cc3[nH]c2=O)cc1	-4%
N=C(N)N=Nc1c(O)[nH]c2ccc(Br)cc12	9%
Cc1onc(-c2ccccc2Cl)c1C(=O)Oc1cc(N)n(S(=O)(=O)c2ccc(F)cc2)n1	-6%
Cc1ccc(C)c(-c2nnc(NC(=O)c3ccc([N+](=O)[O-])s3)o2)c1	3.1µg/mL*
Cc1ccc2cc(CCNC(=O)C34CC5CC(CC(C5)C3)C4)c(=O)[nH]c2c1C	-3%
CCCSc1nc2c(c(=O)[nH]1)C(c1ccc(N(C)C)cc1)C1=C(CC(C)(C)CC1=O)N2 (stereo unspecified)	-1%
CC(=O)N(C)c1nnc(C23CC4CC(CC(C4)C2)C3)s1	14%
O=C(CCN1C(=O)c2ccccc2S1(=O)=O)Nc1cc(F)ccc1F	-10%
CC1=C(C(=O)Nc2ccc(C)c(Cl)c2)C(c2cccs2)NC(=O)N1 (stereo unspecified)	12%
O=C(Cc1cccc2ccccc12)Nc1nnc(-c2ccc3c(c2)OCCO3)o1	8%
COc1ccc(C2C(C(=O)c3cccs3)=C(O)C(=O)N2c2cc(C)on2)cc1OC (stereo unspecified)	-11%
O=C(CC1CCCC1)Nc1c(C(=O)Nc2ccccc2F)oc2ccccc12	2%

Carrying on.
SMILES	Mtb H37Rv
O=S(=O)(NCc1nnnn1-c1ccc(F)c(F)c1)c1cc(F)ccc1F	-1%
O=C(Nc1ccccc1C(=O)N=Nc1c(O)[nH]c2ccc(Br)cc12)c1ccccc1	-9%
CCOC(=O)c1nn(-c2ccc(C(F)(F)F)cc2)c(=O)c2c(NC(=O)c3ccccc3OC)scc12	6%
O=C(CSc1nnc(-c2cccs2)o1)c1ccccc1	-5%
O=C(Nc1ncc(Cc2cccc(C(F)(F)F)c2)s1)c1ccccc1	67%
O=C1CC(c2nc3ccccc3n2Cc2ccccc2F)CN1c1ccccc1F (stereo unspecified)	13%
O=C(NC1CC(=O)N(c2ccccc2)C1)NC(c1ccccc1)c1ccccc1 (stereo unspecified)	6%
O=C(Nc1nnc(-c2ccc(Br)cc2)o1)C1CC1	-4%
CCc1ccc(-c2nnc3c4cc5c(cc4n(Cc4ccccc4F)cc2-3)OCCO5)cc1	6.3µg/mL*
COc1ccccc1C(=O)Nc1nc2ccc(S(C)(=O)=O)cc2s1	7%
O=C(Nc1ccccc1-c1nc2ccccc2[nH]1)c1ccccc1Br	14%
CC(C)S(=O)(=O)c1ccc(C(=O)Nc2nnc(-c3ccc4c(c3)OCCO4)o2)cc1	73%
[O-]/[N+](=C/c1ccco1)c1ccccc1	15%
CCOc1ccc2c(c1)c(=O)c(C(=O)c1ccc(F)cc1)cn2Cc1ccccc1	1%
COc1ccc2cc(CCNC(=O)c3ccco3)c(=O)[nH]c2c1	-4%
O=C(CN1C(=O)CCC1=O)Nc1nnc(C2=COCCO2)o1	3%
COc1ccc(NC(=O)c2oc3ccccc3c2NC(=O)COc2cccc(OC)c2)cc1	3%
O=S(=O)(c1ccccc1)N1CCn2cccc2C1c1ccc(F)c(F)c1 (stereo unspecified)	0%
COC(=O)CCC(=O)Nc1sc2c(c1C(N)=O)CCCC2	-4%
CCOc1ccccc1C(=O)Nc1nnc(C(C)C)s1	7%
CC(C)c1nc(C(N)=O)c2[nH]c(=O)n(-c3ccc(Cl)c(Cl)c3)c2n1	-4%
O=C(Nc1ccccn1)NC1CC(=O)N(c2ccc(Cl)cc2)C1 (stereo unspecified)	14%
CCOC(=O)Cc1csc(NC(=O)c2ccc3ncsc3c2)n1	5%
CCOC(=O)c1nn(-c2ccc(OC)cc2)c(=O)c2c(NC(=O)C(C)(C)C)scc12	5%

Four entries from above, comma-delimited:
SMILES,Mtb H37Rv
CCOc1ccccc1C(=O)Nc1nnc(C(C)C)s1,7%
CC(C)c1nc(C(N)=O)c2[nH]c(=O)n(-c3ccc(Cl)c(Cl)c3)c2n1,-4%
O=C(Nc1ccccn1)NC1CC(=O)N(c2ccc(Cl)cc2)C1 (stereo unspecified),14%
CCOC(=O)Cc1csc(NC(=O)c2ccc3ncsc3c2)n1,5%

Other records:
SMILES	Mtb H37Rv
CN1C(=O)c2cccc(NC(=O)c3cc(-c4ccccc4)nc4ccccc34)c2C1=O	-6%
O=c1c2ccccc2nc(SCc2cc(=O)n3ccccc3n2)n1Cc1cccs1	-1%
O=C(CCc1ccccc1)Nc1c(C(=O)Nc2ccccc2F)oc2ccccc12	-9%
O=C(CCCCn1c(=O)[nH]c2ccsc2c1=O)NCCc1ccccc1	3%
N#C/C(=C/c1ccc(Cl)cc1)C(=O)Nc1sc2c(c1C(N)=O)CCCC2	0%
Cc1ccc(C)c2[nH]c(=O)c(CCNC(=O)CC3CCCCC3)cc12	-2%
COc1ccc2nc(-c3cccc(NC(=O)c4c(F)cccc4F)c3)cn2n1	0%
Cn1c(=O)c2c(nc(N3CCCC3)n2CCSc2nc3ccccc3o2)n(C)c1=O	3%
CCOc1ccc2c(c1)c1nnc(-c3ccc(C)cc3)c-1cn2Cc1cccc(OC)c1	59%
CCN(CC)S(=O)(=O)c1ccc(C(=O)Nc2c(C(=O)Nc3ccccc3)oc3ccccc23)cc1	10%
O=C(Nc1nc2ccc(S(=O)(=O)N3CCCC3)cc2s1)c1ccccc1	0%
CC(C)c1cc(-c2nc(-c3ccccc3)no2)n[nH]1	13µg/mL*
Cc1ccc(Cl)cc1NC(=O)CN1N=NC2C(=O)N(c3ccc(Br)cc3)C(=O)C21 (stereo unspecified)	-11%
Fc1ccc(Nc2nc(Nc3ccccc3)c3nccnc3n2)cc1	33%
CC(C)c1nnc(SCc2c(Cl)ccc(Cl)c2Cl)n1N	-14%
NS(=O)(=O)c1ccc2nc(NC(=O)c3cccc(C(F)(F)F)c3)sc2c1	58%
CC(=O)Nc1nnc(SCc2cccc(F)c2)s1	11%
O=C(NCCc1csc2nc(-c3ccc(F)cc3)nn12)C(=O)Nc1ccccc1F	-3%
Cc1cccc(NC(=O)CSc2ccc3nnc(-c4ccc(Cl)cc4)n3n2)c1	-9%
COc1cccc(/C=C2/SC(=S)N(c3ccc4c(c3)OCO4)C2=O)c1OC	-9%
CCOC(=O)c1nn(-c2ccccc2)c(=O)c2c(NC(=O)c3c(F)cccc3F)scc12	-7%
COc1ccc2sc(Nc3nc(-c4cccnc4)cs3)nc2c1	48%
Cc1cccc(Nc2ncnc3nc[nH]c23)c1C	15%
Cc1ccc(Cl)cc1NC(=O)CSc1nncc(=O)[nH]1	-5%

A draw from above in order of number of heavy atoms, falling:
SMILES	Mtb H37Rv
CCN(CC)S(=O)(=O)c1ccc(C(=O)Nc2c(C(=O)Nc3ccccc3)oc3ccccc23)cc1	10%
CCOC(=O)c1nn(-c2ccccc2)c(=O)c2c(NC(=O)c3c(F)cccc3F)scc12	-7%
Cn1c(=O)c2c(nc(N3CCCC3)n2CCSc2nc3ccccc3o2)n(C)c1=O	3%
Cc1ccc(Cl)cc1NC(=O)CN1N=NC2C(=O)N(c3ccc(Br)cc3)C(=O)C21 (stereo unspecified)	-11%
Cc1cccc(NC(=O)CSc2ccc3nnc(-c4ccc(Cl)cc4)n3n2)c1	-9%
COc1cccc(/C=C2/SC(=S)N(c3ccc4c(c3)OCO4)C2=O)c1OC	-9%
NS(=O)(=O)c1ccc2nc(NC(=O)c3cccc(C(F)(F)F)c3)sc2c1	58%
Fc1ccc(Nc2nc(Nc3ccccc3)c3nccnc3n2)cc1	33%
COc1ccc2sc(Nc3nc(-c4cccnc4)cs3)nc2c1	48%
CC(C)c1nnc(SCc2c(Cl)ccc(Cl)c2Cl)n1N	-14%
CC(C)c1cc(-c2nc(-c3ccccc3)no2)n[nH]1	13µg/mL*
Cc1cccc(Nc2ncnc3nc[nH]c23)c1C	15%

Following part
SMILES	Mtb H37Rv
CC(=O)C(C)n1c(=O)c2c(nc3n(-c4cccc(Cl)c4)c(C)cn23)n(C)c1=O (stereo unspecified)	2%
O=C(Cc1cccc2ccccc12)Nc1nc2ccc(S(=O)(=O)N3CCCC3)cc2s1	83%
COc1ccc2c(c1)O/C(=C\c1ccc(OS(C)(=O)=O)cc1)C2=O	-1%
Cc1ccc2cc(CCNC(=O)c3ccc(Br)cc3)c(=O)[nH]c2c1C	-6%
CC1Cc2ccccc2N1c1ncnc2nc[nH]c12 (stereo unspecified)	5%
COc1ccc(NC(=O)c2cn(C)cc3c(=O)n(-c4ccccc4)nc2-3)cc1OC	-2%
Cn1c(=O)c2c(SCC(=O)N3CCCc4ccccc43)nc(-c3ccco3)nc2n(C)c1=O	8%
O=C(Nc1nc(-c2cccnc2)cs1)c1cc(-c2cccs2)nc2ccccc12	5%
C=CCn1c(Sc2nc(C)cs2)nc2c1c(=O)[nH]c(=O)n2C	1%
CCOC(=O)CSc1ccc2nnc(-c3ccc(F)cc3)n2n1	-3%
O=C(CSc1ncnc2ccccc12)Nc1nccs1	-12%
C(=N\Nc1ncnc2nc[nH]c12)/c1cccs1	3%
O=C1CCc2cc(S(=O)(=O)Nc3ccc(OC(F)(F)F)cc3)cc3c2N1CCC3	-5%
COc1ccc(S(=O)(=O)c2cn(CC(=O)Nc3ccccc3C)c3ccc(F)cc3c2=O)cc1	5%

An excerpt; rates above refer to the full screens.
